Screens (PubChem BioAssay)
GIV-Gai inh – blocks GIV peptide binding to rat Galpha-i3; P08753; Galpha-i3/FITC-GIV peptide fluorescence polarization, 90 min; stronger effect = lower value; scaled: aluminum fluoride 0%, vehicle 100%; percent of control (FP), % (test concentration not listed); actives 0.42% (n = 210,000); AID 1224905;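 active = replicate mean at 85% of control or lower, very high polarization wells dropped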;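 also: wells of about 15 µL received 100 nL stock; the first replicate is given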
Target sequence (P08753 whole entry, looked up): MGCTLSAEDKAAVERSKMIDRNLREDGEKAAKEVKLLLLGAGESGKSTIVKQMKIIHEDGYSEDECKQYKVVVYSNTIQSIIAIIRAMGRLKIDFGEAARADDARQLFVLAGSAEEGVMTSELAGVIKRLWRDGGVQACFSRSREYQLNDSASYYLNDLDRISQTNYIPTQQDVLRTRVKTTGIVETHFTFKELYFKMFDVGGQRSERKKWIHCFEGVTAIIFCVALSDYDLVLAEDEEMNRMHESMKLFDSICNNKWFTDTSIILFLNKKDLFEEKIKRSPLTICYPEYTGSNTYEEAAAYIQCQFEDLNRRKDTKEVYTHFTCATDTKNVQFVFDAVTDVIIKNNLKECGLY
Sa growth 42C – inhibitors of Staphylococcus aureus growth at 42 °C | S. aureus RN4220 growth, OD600, 20 h; stronger effect = lower value | actives 0.53% (n = 170,000) | relative growth, % (concentration not given with the values);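 active = growth at 42 °C up to 50% and 20 or more points under that at 30 °C, or under 10% at both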;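 also: 300 nL library stock went into each well; scaled to the means of positive and negative controls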
HCMV UL50-53 inh – disrupts HCMV UL50-UL53 complex binding. HTRF UL50-UL53 interaction, normalized percent inhibition. inhibition, % (no concentration beside the values). actives 0.15% (n = 190,000);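 active = both replicates at 50% or more, plus weaker picks with an unusually low signal ratio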;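 also: stock transfer was 100 nL into about 20 µL; 0% = negative control wells and 100% = wells with untagged competitor protein; inactives centre near -12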
Sa growth 42C second temp – second read-out of Sa growth 42C, no call of its own (marks repeat the call); relative growth, %; measured here: growth at 30 °C;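 optical density after 20 h as mean of two plates; 100% = untreated growth and lower means inhibition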
The depositor's hits bear a star; x = not tested or not shown; & = joins results of further samples.

SMILES	GIV-Gai inh	Sa growth 42C	Sa growth 42C second temp	HCMV UL50-53 inh
CC(C)N1C(=O)CCC1C(=O)N1CCN(c2ccc(F)cc2)CC1 (configuration not stated)	105	92	90	-32
CCn1c(/C=C/Nc2ccccc2)[n+](CC)c2ccc(S(=O)(=O)C(F)(F)F)cc21	x	105	81	-38
CCOC(=O)c1ccc(NC(=O)c2ccc(C(C)(C)C)cc2)cc1	x	70	86	-10
CCN(CC)C(=O)CSc1nc(-c2ccccc2)c(-c2ccccc2)o1	x	93	96	-9
Cc1ccc(-c2noc(CCC(=O)NC3CCCC3)n2)c(=O)[nH]1	103	x	x	-34
NC(=O)CSC1=Nc2ccccc2C2=NC(CCC(=O)NCc3cccs3)C(=O)N12 (configuration not stated)	98	106	90	-20
O=c1ccc(=O)n(CCO)[nH]1	97	98	86	-11
CCOc1cc(C2c3c(-c4ccccc4O)n[nH]c3C(=O)N2Cc2cccnc2)ccc1O (configuration not stated)	104	103	82	-34
Cc1nc(Nc2ccc(NC(=O)c3ccc(C(C)(C)C)cc3)cc2)cc(N(C)C)n1	101	x	x	-33
Cc1cc(C)c(C#N)c(OCC(=O)Nc2ccccc2)n1	104	108	85	-20
CC(=O)N1c2ccc(S(=O)(=O)N3CCOCC3)cc2CC1C(=O)N1CCOCC1 (configuration not stated)	98	x	x	-2
COCCCn1c(=N)c(S(=O)(=O)c2ccccc2)cc2c(=O)n3cc(C)ccc3nc21	109	116	83	-153
COc1ccccc1NC(=O)C1=C(C)Nc2nc(SCc3ccccc3)nn2C1c1ccncc1 (configuration not stated)	106	130	81	-96
Cn1c(=O)c2c(-c3ccc(Cl)cc3)n(C3CCCCC3)cc2n(C)c1=O	102&104	87	86	-15&-18
Cc1ccc(CN2CCC(CNc3ncnc4onc(-c5ccc(Cl)cc5)c34)CC2)cc1	101	100	87	x

4 entries from above, reformatted:
mol | GIV-Gai inh | Sa growth 42C | Sa growth 42C second temp | HCMV UL50-53 inh
COCCCn1c(=N)c(S(=O)(=O)c2ccccc2)cc2c(=O)n3cc(C)ccc3nc21 | 109 | 116 | 83 | -153
O=c1ccc(=O)n(CCO)[nH]1 | 97 | 98 | 86 | -11
Cc1ccc(CN2CCC(CNc3ncnc4onc(-c5ccc(Cl)cc5)c34)CC2)cc1 | 101 | 100 | 87 | x
CCn1c(/C=C/Nc2ccccc2)[n+](CC)c2ccc(S(=O)(=O)C(F)(F)F)cc21 | x | 105 | 81 | -38

Next records follow:
SMILES	GIV-Gai inh	Sa growth 42C	Sa growth 42C second temp	HCMV UL50-53 inh
CN(C)C(Cl)=Nc1ccccc1	x	85	97	17
Cc1ccc(-c2n[nH]c(=S)o2)cc1	103	53	54	5
O=c1[nH]c(SCCN2CCOCC2)nc(O)c1-c1ccccc1	105&97	95	83	-5&0
CCN(CC)c1ccc(NC(=O)c2oc3ccccc3c2COC)cc1	x	96	98	-7
CC1Oc2ccc(NC(=O)c3csnn3)cc2NC1=O (configuration not stated)	115	x	x	-17
CC1(C)Cc2cccc(OCC(=O)N3CCN(S(=O)(=O)c4ccc(F)cc4)CC3)c2O1	x	92	92	-7
Fc1ccc(-n2nnc3c(SCc4ccc(C(F)(F)F)cc4)ncnc32)cc1	102	108	95	x
Cc1onc(-c2ccccc2)c1C(=O)OCCCn1c(=O)[nH]c2ccccc21	x	118	92	16
Nc1nnc(SCC(=O)OCC(=O)Nc2ncc(Cl)cc2Cl)s1	x	91	96	8
COC(=O)c1ccc(CSc2nc(=O)n3cc(C)ccc3n2)o1	100	89	81	-29
CCc1ccc(NC(=O)CN2CCCN(Cc3cccc(Cl)c3)S2(=O)=O)cc1	98	82	87	x
O=c1[nH]c2ccccc2nc1C(F)(F)C(F)(F)C(F)(F)C(F)F	101	87	69	-48
CCc1ccc(C2=Nc3ccccc3N(CC(=O)NC(C)CCc3ccccc3)C(=O)C2)cc1 (configuration not stated)	100	x	x	-23
COCc1nc2ccccc2n1C(C)C	101&103	81	90	6
Cc1cc(C)nc(N2CCC(NC(=O)NCc3ccccc3)CC2)n1	108	x	x	-6
CCn1c2ccccc2c2nnc(N3CCC(C(N)=O)CC3)nc21	99	86	83	x
Cn1nc(C(=O)NCc2ccco2)c2c1-c1ccccc1SC2	99	85	85	x
Cc1ccc(C(C(=O)NC2CCCCC2)N(C(=O)Cc2c[nH]c3ccccc23)C2CC2)o1 (configuration not stated)	99	74	89	-18
N#Cc1ccc(NC(=O)COC(=O)c2cccc(S(=O)(=O)N3CCCC3)c2)cc1	x	81	80	-24
O=C(c1ccccc1)N1CCc2cc(CNS(=O)(=O)c3ccccc3Cl)ccc21	98	85	85	x
O=C(/C=c1\[nH]c(=O)/c(=C\c2ccsc2)s1)c1ccco1	x	18	7	-95
O=C(CCn1c(=O)sc2ccccc21)Nc1ccccn1	98	89	89	-9
CCOC(=O)c1ccc(N2C(=O)c3[nH]nc(-c4ccc(OC)cc4)c3C2c2ccccc2F)cc1 (configuration not stated)	98	x	x	-26
Cc1ccc(C(C(=O)NC2CCCC2)N2CCN(C(=O)c3ccco3)CC2)cc1 (configuration not stated)	100	88	84	-28
CCCOC(=O)c1ccc(NC(=O)c2ccc3c(c2)OCCO3)cc1	106	x	x	-26
CCC(=O)Nc1nc2cc(NC(=O)c3cccnc3)ccc2s1	103	x	x	-18
CCN(CC)c1ccc(-c2c(C#N)c(N)nc(OC)c2C#N)cc1	31*	x	x	-22
O=C(CSc1c2c(nc3cc(Cl)ccc13)CCCC2)N1CCCCCC1	104	102	91	x
COC(=O)c1c(C)nn(C(=O)c2cccs2)c1-c1snnc1C	101	123	87	-27
c1ccc(-n2ncc3c(NCc4ccccn4)ncnc32)cc1	x	106	94	-19

Some values from the entries so far.
Result for c1ccc(-n2ncc3c(NCc4ccccn4)ncnc32)cc1 under Sa growth 42C: 106
Result for CCCOC(=O)c1ccc(NC(=O)c2ccc3c(c2)OCCO3)cc1 under HCMV UL50-53 inh: -26

Next part.
SMILES	GIV-Gai inh	Sa growth 42C	Sa growth 42C second temp	HCMV UL50-53 inh
CCOC(=O)c1sc(N2C(=O)c3oc4cc(C)c(C)cc4c(=O)c3C2c2cccc(O)c2)nc1C (configuration not stated)	102	79	91	-2
Cc1cc(NS(=O)(=O)c2ccc3[nH]c(=O)ccc3c2)ccc1Br	111	116	90	x
CCOc1cc(C2C(C(=O)OCCSCC)=C(C)NC3=C2C(=O)CC(c2ccc(OC)cc2)C3)ccc1O (configuration not stated)	105	x	x	-20
CC(C)CCNC(=O)CCCCn1c(=O)c2ccccc2n(CC(=O)NCc2ccccc2)c1=O	101	x	x	-18
N#Cc1nc(COc2ccccc2Cl)oc1N1CCCC1	97	89	82	-10
Nc1ncnc2c1cnn2Cc1ccccc1	98	88	73	0
O=S(=O)(c1ccc2c(c1)CCCC2)N1CCCC(c2nc(-c3ccc4c(c3)OCO4)no2)C1 (configuration not stated)	102	x	x	-26
Cc1cccc(S(=O)(=O)N2CCN(c3cc(N4CCN(C)CC4)nc(C)n3)CC2)c1	99	x	x	-17
CCn1nc(C)c2c(-c3ccccc3)cc(=O)n(C(C)C(=O)NCc3ccc(C)cc3)c21 (configuration not stated)	108	97	102	x
N#Cc1ccccc1Cn1c(=O)n(CCCC(=O)NC2CCN(Cc3ccccc3)CC2)c(=O)c2ccccc21	110	103	96	-4
COc1ccc(NC(=O)c2ccnc(N3CCOCC3)c2)cc1	104	x	x	-6
c1ccc(-c2nc(Sc3ncnc4c3cnn4-c3ccccc3)n[nH]2)cc1	107	110	90	x
COc1ccc(C(=O)N2CC(OCc3ccc(F)cc3Cl)C2)cc1OC	99	x	x	-30
COc1nccn(Cc2ccc(Cl)cc2)c1=O	98	x	x	-20
O=C(CCSCc1cnn(-c2ccccc2)c1-n1cccc1)NCc1ccccc1Cl	98	98	93	-16
COc1cccc(C(=O)Nc2cccc(N=C(N)CCC(=O)O)c2)c1	107	115	105	-10
O=C(Cn1c(=O)c2ccccc2n2c(=S)sc(-c3ccccc3F)c12)N1CCCC1	112	x	x	6
CC1CC(O)NN=C1c1ccc2nc(COc3ccccc3O)[nH]c2c1 (configuration not stated)	x	63	88	-38
O=C1OC2(CCCC2)OC(=O)C1=Cc1c[nH]c2ccccc12	108	97	93	x
CCOC(=O)CC(NC(=O)Cn1nnc(-c2ccccc2Cl)n1)c1ccc(OC)cc1 (configuration not stated)	99	117	88	x
O=C(Cn1c(N2CCCCC2)nc2ccccc21)c1ccccc1	x	117	84	-19
Cc1oc(-c2ccccc2)nc1CSc1nncn2c1cc1occc12	111	86	64	x
O=C(NCc1ccccc1Cl)c1ccc2nc(Cc3ccccc3)oc2c1	99	91	88	x
Cc1cc(C)n2nc(CN(c3ccccc3)S(C)(=O)=O)nc2n1	106	x	x	-11
NNC(=O)c1cc2ccccc2cc1O	103	78	33	-60
CCNc1nc2c(c(=O)n(C)c(=O)n2C)n1Cc1ccc(F)cc1	102	110	98	x
CC(C)C(N)C(O)(c1ccccc1)c1ccccc1 (configuration not stated)	101	112	94	-8
CCCC1=Nc2cc(C(=O)N3CCC(C)CC3)ccc2Sc2ccc(C)cc21	109	85	95	2
N#Cc1cc(C#N)c(SCC(=O)N2CC(=O)Nc3ccccc32)nc1N	x	123	71	-14
N#Cc1c(SCC(=O)Nc2nccs2)nc(N2CCOCC2)c2c1CCCC2	97	86	74	3
COc1ccc2cc(CN(Cc3nnnn3Cc3ccccc3)C3CCCC3)c(=O)[nH]c2c1	107	97	112	3
Cn1c(=O)c2c(nc(SCC(=O)Nc3ccc(F)cc3F)n2Cc2ccccc2)n(C)c1=O	107	92	100	10
O=C(CSc1cccc(C(F)(F)F)c1)Nc1ccc(F)cc1F	109	111	87	-4
COc1ccc2ccccc2c1C=Nc1ccccc1C#N	x	113	81	-47
N/C(=N\OC(=O)c1ccc2ncsc2c1)c1ccccc1	103	95	73	-37
COc1ccc(NC(=O)Cn2c(=O)n(-c3ccc(C)cc3)c(=O)c3c2c2cc(C)ccc2n3C)cc1	101	87	94	x
O=C(NCc1ccccn1)c1ccc(CSc2nc3ccncc3n2Cc2ccc(F)cc2)cc1	102	100	86	8
CCc1cccc2c(C#N)cn(CC(=O)N(CC)CC)c12	104	116	73	-4
O=C(C1Cc2ccccc2CN1C(=O)c1ccco1)N1CCc2ccccc21 (configuration not stated)	x	96	94	-6
Cc1noc2ncnc(N3CCC(C)CC3)c12	101	x	x	-2
COC(=O)c1scc(-c2ccc(C)cc2)c1S(=O)(=O)N1CCN(c2ccccc2)CC1	100	95	96	x
C=CCNC(=O)CCN1c2ccccc2Sc2ccccc21	x	69	87	4
CCOC(=O)c1cc2c(=O)n3cc(C)ccc3nc2n(Cc2ccco2)c1=N	112	96	91	x
CCCCN(C)C(=O)C1CCCN(c2ncnc3onc(-c4ccc(F)cc4)c23)C1 (configuration not stated)	105	89	89	x
CC1CCCC(C)N1C(=O)c1cc2cccnc2n(Cc2ccccc2)c1=O (configuration not stated)	107	103	89	-21

Single records, from the list above. Values in the order: GIV-Gai inh | Sa growth 42C | Sa growth 42C second temp | HCMV UL50-53 inh
`O=C(CSc1cccc(C(F)(F)F)c1)Nc1ccc(F)cc1F` as listed: 109 | 111 | 87 | -4
`COc1ccc2cc(CN(Cc3nnnn3Cc3ccccc3)C3CCCC3)c(=O)[nH]c2c1` as listed: 107 | 97 | 112 | 3
`CC1CCCC(C)N1C(=O)c1cc2cccnc2n(Cc2ccccc2)c1=O` (configuration not stated) as listed: 107 | 103 | 89 | -21

Remaining list, next part
SMILES	GIV-Gai inh	Sa growth 42C	Sa growth 42C second temp	HCMV UL50-53 inh
CCOC(=O)c1ccc(NC(=O)CSc2cc(-c3ccccc3)nc(C)n2)cc1	101	116	91	-6
CCCn1c(=O)c2ccc(C(=O)NC(C)C)cc2n2c(=O)n(CC(=O)NCc3ccc(C)cc3)nc12	102	x	x	-37
NC(C(=O)O)c1ccc(CCCC(=O)O)s1 (configuration not stated)	102	103	82	x
CCOc1ccc2[nH]c(=O)c(CN(CCOC)C(=O)Nc3ccccc3C)cc2c1	98	96	92	-13
CC(C)NS(=O)(=O)c1ccc(Cl)s1	109	90	78	x
Fc1ccccc1Nc1c2c(nc3ccccc13)CCC2	101	83	73	-36
CC1CCn2c(nc3cc(C(=O)NCc4ccc(F)cc4)ccc32)C1 (configuration not stated)	101	100	85	x
Cc1ccccc1CNC(=O)CCC(=O)N1CCSc2ccccc21	104	99	96	x
COc1ccc(-c2ccc(/C=C3\C(=O)N(c4cccc(Br)c4)N=C3C)o2)cc1[N+](=O)[O-]	105	x	x	-34
O=C(C1CCCO1)N1CCN(C/C=C/c2ccccc2)CC1 (configuration not stated)	x	88	94	-16
COc1ccc(OC)c(NC(=O)Cc2c(C)n(C(=O)c3ccc(Cl)cc3)c3ccc(OC)cc23)c1	105	104	84	-8
CC1Cc2cc(S(=O)(=O)NCc3ccccc3Cl)ccc2N1C(=O)C1CCC1 (configuration not stated)	98	90	90	x
CC(=O)N1c2ccccc2NC(=O)C1CC(=O)Nc1cccc(C)c1 (configuration not stated)	109	78	79	14
CNC(=O)CC(=O)NC	104	88	114	3
Cc1ccc(C2CC(c3ccccc3)=NN2c2nc(C)cs2)cc1 (configuration not stated)	101	x	x	-33
NC(=O)CN1C(=O)CCS(=O)(=O)c2ccccc21	102	87	84	-31
COc1ccc2oc(=O)cc(CN(Cc3ccco3)C3CCCC(C)C3C)c2c1 (configuration not stated)	108	85	72	-9
CN(C)CCCNC(=O)c1cc(-c2ccc(Br)cc2)nc2ccccc12	99	x	x	-44
CCOC(=O)c1ccc(NC(=O)Cn2cc(C(=O)c3ccc(CC)cc3)c(=O)c3ccc(C)nc32)cc1	106	101	98	x
O=C(Cc1cc(F)cc(F)c1)Nc1ccc(Cl)cc1	103	69	69	-4

The order is random; any-hit rate near 0.82%.
